Screening data (PubChem)
Tg IFNy HTS – inhibitors of Toxoplasma gondii growth with IFN-gamma; Toxoplasma gondii growth in IFN-gamma-treated host cells; stronger effect = lower value; reference of the scale not given here; activity change, negative = inhibition, %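 (about 20 µM by stock and volumes)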; hit rate 3.8% among 69,000; AID 1259416;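 active = below -70%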;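 also: host cells are HeLa cells infected with Toxoplasma gondii; parasite growth read as luciferase light; one replicate is shown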
Starred values were filed as active, the others as inactive; i = inactive; & = joins results of further samples. A portion of the library; rates above refer to the full screens.

SMILES	Tg IFNy HTS
Cc1cc(C)cc(NC(=O)N2CCC3(CC2)CC(=O)c2ccccc2O3)c1	72
CNC(=O)c1cc(=O)n(CC(=O)Nc2ccc(C(C)C)cc2)c2ccccc12	8
COc1cc(-n2cccc2)cc(C(F)(F)F)c1	-2
CC(C)NC(=O)N1CC(=O)N2[C@H](CO)[C@H](c3ccc(/C=C/c4ccccc4)cc3)[C@@H]2C1	-37
CN1CCN(CCCN(C)CC(C)(C)c2ccc(Cl)cc2)CC1	-9
CCS(=O)(=O)N1CCC(c2nc3ccc(-c4ccncc4)cn3n2)CC1	41
CO[C@@H]1CC[C@@H]2CCOc3c(C#N)cccc3C(=O)N(C)CCCC(=O)N(C)C[C@@H]1O2	-23
Cc1ccc2nc(-c3cc4cccc(C)c4[nH]c3=O)c(NCC3CCCO3)n2c1 (stereo not given)	141
CCc1ccc(-c2noc(-c3c(O)c4ccccc4n(CC)c3=O)n2)cc1	34
O=C(CCCn1cncn1)N1CCc2[nH]nc(-c3cccc4ccccc34)c2C1	-3
CS(=O)(=O)N(CC(=O)NCC1CCCO1)c1cc(C(F)(F)F)ccc1Cl (stereo not given)	-5
CN(Cc1ccc(C(=O)Nc2ccc3c(c2)CC(=O)N3)cc1)CC1CCCO1 (stereo not given)	12
CCC(CO)N(Cc1ccsc1)C(=O)c1cccc(F)c1OC (stereo not given)	15
O=C(c1ccnnc1)N1CCc2ncnc(-c3ccc(F)cc3)c2CC1	-4
CCc1c(C)sc2c1CCN(Cc1nc(-c3ccc(OC(C)C)cc3)oc1C)C2c1ccccc1 (stereo not given)	-53

Reprinted from the part before: seven compounds; new compounds follow.
SMILES	Tg IFNy HTS
CCc1ccc(-c2noc(-c3c(O)c4ccccc4n(CC)c3=O)n2)cc1	34
O=C(CCCn1cncn1)N1CCc2[nH]nc(-c3cccc4ccccc34)c2C1	-3
CS(=O)(=O)N(CC(=O)NCC1CCCO1)c1cc(C(F)(F)F)ccc1Cl (stereo not given)	-5
CN(Cc1ccc(C(=O)Nc2ccc3c(c2)CC(=O)N3)cc1)CC1CCCO1 (stereo not given)	12
CCC(CO)N(Cc1ccsc1)C(=O)c1cccc(F)c1OC (stereo not given)	15
O=C(c1ccnnc1)N1CCc2ncnc(-c3ccc(F)cc3)c2CC1	-4
CCc1c(C)sc2c1CCN(Cc1nc(-c3ccc(OC(C)C)cc3)oc1C)C2c1ccccc1 (stereo not given)	-53
Cn1c(NC2CCN(Cc3ccccc3)CC2)cc(=O)n(C)c1=O	20
OCc1ccccc1-c1ccc2[nH]ncc2c1	6
CC(C)N1CCN(CC#N)C2(CCN(c3cnccn3)C2)C1=O (stereo not given)	1
COc1ccccc1C(=O)Nc1ccc(N2CCN(C)CC2)cc1	-7
Cc1cc(NC(=O)CSc2n[nH]c(=O)n2-c2ccccc2)n(-c2ccccc2)n1	-45
CCc1ccc(NC(=O)N2CCC3(CC2)COCCN(CC(=O)N(C)C)C3)cc1	33
COc1ccccc1CC(=O)N1CCC2(CN(C)C(=O)O2)C1 (stereo not given)	-7
C[C@]12CCC(=O)C=C1CC[C@@H]1[C@@H]2[C@@H](O)C[C@@]2(C)[C@H]1CC[C@]2(O)C(=O)COC(=O)CCC(=O)O	10
CCCCNc1c2c3c(cccc3[nH]c1=O)C(=O)c1ccccc1-2	20
O=C(C1CCC1)N1CC[C@H]2CN(Cc3ccc(Cl)cc3)S(=O)(=O)[C@@H]2CC1	-47
Cn1cccc1C(=O)NCc1cn2c(n1)CN(S(C)(=O)=O)CC2	-69
COC(=O)c1sc(SC)c(-c2ccn[nH]2)c1C	57
Cc1ccc(NC(=O)C(C)NCc2ccccc2-n2ccnc2C)cc1 (stereo not given)	12
Cc1cc(C)n(CCC(=O)NC(Cn2cccn2)c2ccccc2)c(=O)n1 (stereo not given)	207
CC(Sc1nc2ncnc(N)c2[nH]1)C(=O)O (stereo not given)	3

Next records
SMILES	Tg IFNy HTS
CCCS(=O)(=O)N1CC[C@@]2(C[C@H](OCCN3CCCC3)CO2)C1	4
CC(C)(C)c1ccc2c(c1)OCCOCCOCCOCCO2	-21
CCOC(=O)c1nc(N(C)c2cccc(Cl)c2)c2ccccc2n1	24
Cn1ncc2c3ccccc3n(CC(=O)N3CCN(c4ncccn4)CC3)c2c1=O	130
COc1cccc(-c2nc3c(s2)CN(S(=O)(=O)c2ccc(F)c(Cl)c2)CC3)c1	-37
COc1ccc2c3c([nH]c2c1)[C@H](CO)N(S(=O)(=O)c1ccccc1)CC31CCN(C)CC1	-17
Cc1cc(C)n(C(C)C(=O)Nc2ccc(C)c(S(=O)(=O)N3CCCC3)c2)n1 (stereo not given)	10
CC(=O)NCC1=CCCN(CC(=O)N2CCOc3ccccc32)C1	-2
Cc1nc2c(c(=O)[nH]1)CCN(C(=O)c1ccc3sc(C)nc3c1)C2	0
NC1(C(=O)NCC2CCCN(Cc3cccc4nonc34)C2)CCC1 (stereo not given)	-10
CO[C@@H](CN(C)C(=O)c1ccc2c(c1)OCO2)[C@H](C)CN([C@@H](C)CO)S(=O)(=O)c1ccc(Cl)cc1	-38
COCCN1CCN2CC(C(=O)O)CN(Cc3ccoc3)CC2C1 (stereo not given)	3
Cc1n[nH]c(=O)c(C)c1-c1ccc(Cl)c(C(=O)O)c1	2
Cc1ccc(C(=O)N2CCC(C3=CCN(CCO)CC3)CC2)cc1F	-5
CCc1ccccc1OCCN(C)C(=O)c1ccc(C(C)=O)cc1	19

New compounds follow:
SMILES	Tg IFNy HTS
CC(C)C(=O)c1ccc2nnc3ncn(CCN(C)C)c3c2c1	65
c1ccc(OC2COC3(CCN(Cc4ccsc4)CC3)C2)nc1 (stereo not given)	151
Cc1cc(C)c2[nH]c(C)c(CC(=O)N(C)C(c3ccccn3)C3CC3)c2c1 (stereo not given)	1
O=C(c1ccc(F)c(F)c1)N1CCc2onc(COCC3CC3)c2C1	-3
COc1ccc(-c2nc3c(s2)CN(S(=O)(=O)c2ccc(C)cc2C)CC3)cc1OC	-101*
COc1ccc2c3c([nH]c2c1)[C@H](CO)N(C(=O)CC1CC1)CC31CN(Cc2cccnc2)C1	20
O=C(O)c1cnc2c(c1)n(CCN1CCCC1)c(=O)n2CCc1ccccn1	1
O=C(C[C@H]1OC[C@H]2CN(Cc3ccccc3)CC[C@@H]21)N1CCCO1	104
CC(=O)C(C)(C)OC(=O)NCc1cccs1	32
COCC(=O)N1CCc2c([nH]c3ccccc23)C1c1ccc(Cl)cc1 (stereo not given)	-16
CC(C)NS(=O)(=O)c1ccc(OCC(=O)N2CCCCCC2)cc1	1
Cc1cccc(-c2ccc([C@@H]3[C@@H](CO)N4CCCCN(S(=O)(=O)c5ccccc5F)C[C@@H]34)cc2)c1	-38
FC(F)(F)c1ccc(-c2nnc(-c3ccc4nccnc4c3)o2)cc1	-49
CSc1cccc(-n2nnc(C(=O)NCc3cccs3)c2N)c1	-22
COc1ncnc2c1CCN(Cc1csc(C)n1)CC2	14

Following part
SMILES	Tg IFNy HTS
COc1cccc(C(=O)N2CCC3(CC2)C(=O)NCCN3Cc2csc(C)n2)c1	-34
Cc1ccc2c(c1)NC1(CCN(C(=O)Nc3ccc4c(c3)OCO4)CC1)c1cccn1-2	274
O=C(c1sc2cc(Cl)ccc2c1Cl)N1c2ccccc2Sc2ccccc21	-80*
Cc1ccc(-c2nccn2-c2cccc(-c3nnc(C)s3)c2)o1	-51
CCOc1ccc(C(=O)NCCc2csc(-c3ccc(C(F)(F)F)cc3)n2)cc1	i
O=C(CC1N=C2c3ccccc3N=C(SCc3cc(=O)n4cc(Cl)ccc4n3)N2C1=O)NC1CCCCC1 (stereo not given)	16
C=CCO[C@H]1CCN(CC(=O)N(C)C)[C@H]1Cc1cnn(C)c1	-5
CCCN1CCN(C(=O)CCn2cnnn2)C(Cc2ccc(-c3ccccc3)cc2)C1=O (stereo not given)	2
CC(C)CC(=O)N1CCC2(CC2C(=O)N(C)Cc2ccccn2)C1 (stereo not given)	4
Cc1cc(C)n(CC(C)NC(=O)c2cc(COc3ccccc3)[nH]n2)n1 (stereo not given)	-33
CC(C)(C)c1ccc(-c2noc(CSc3ccccn3)n2)cc1	178
COc1ccc(C2CCCN2C(=O)c2ccc(Cn3ccnc3)o2)c(OC)c1 (stereo not given)	-11
Cc1ccc(NC(=O)Cn2ncc3c(N4CCN(c5ccccn5)CC4)ncnc32)c(Cl)c1	-42
COc1ccc2c3c(n(C)c2c1)[C@H](CO)N(C(C)=O)CC31CN(S(=O)(=O)c2ccccc2)C1	-42
CCOC(=O)CSC1=Nc2ccccc2C2=NC(CC(=O)NC3CCCCC3)C(=O)N12 (stereo not given)	14

Further records
SMILES	Tg IFNy HTS
CC(C)N(Cc1ccc(C(=O)O)o1)C(C)C	-9
CC(=O)N1CCOCC2(C1)CN(S(C)(=O)=O)CCO2 (stereo not given)	9
COCCn1c(/C=C/c2ccccc2)nc2ccccc21	334
CC(C)C#Cc1ccc([C@@H]2[C@@H](C#N)N(C(=O)c3cccc(F)c3)[C@@H]2CO)cc1	-5
COCCn1nnnc1CN(Cc1ccccc1)Cc1cc2ccc(C)c(C)c2[nH]c1=O	-81*
CCS(=O)(=O)N1CCC2(CC1)OC(=O)C(C)=C2C(=O)Nc1cccc(C)c1C	47
Cc1cccc(N2CCC(NC(=O)CC(C)n3ccnc3C)CC2)c1 (stereo not given)	6
CCc1ccc(NC(=O)c2c(O)c3cccnc3n(-c3cccc(OC)c3)c2=O)cc1	180
CCCCc1nc2cc(/C=C/C(=O)NO)ccc2n1CCN(CC)CC	-82*
COCC(=O)N1CCc2ncnc(-c3cnn(C)c3)c2CC1	110
COCC1c2nnn(CC3CC3)c2CCN1S(C)(=O)=O (stereo not given)	-10
COc1ccccc1-c1ccc(CC2(C(=O)N(C)C)CCN(C(=O)C3CC=CCC3)C2)cc1 (stereo not given)	-3
C/C(=C\C(=O)OCCCCCCCCC(=O)O)C[C@@H]1OC[C@H](C[C@@H]2O[C@H]2[C@@H](C)[C@H](C)O)[C@@H](O)[C@H]1O	-37
Cc1ccc2[nH]nc(C(=O)N3CCCC(N)CC3)c2c1 (stereo not given)	-40
N#Cc1cnc(Sc2nnc(-c3cccs3)n2-c2ccc(Cl)cc2)nc1N	-26

The results go on:
SMILES	Tg IFNy HTS
CC1=CC(C)C(COC(=O)NC2CCCCC2)(COC(=O)NC2CCCCC2)C(C)C1 (stereo not given)	-101*
O=C(C[C@H]1CC[C@H]2[C@@H](COC[C@@H](O)CN2C(=O)c2ccncc2)O1)NCc1cc(F)cc(F)c1	0
O=c1[nH]c2ccccc2c(-c2ccccc2)c1-c1cc(-c2ccccc2)c2ccccc2n1	34
COc1ccc2c3c([nH]c2c1)[C@H](CO)NCC31CN(C(=O)Nc2c(C)noc2C)C1	4
O=C(CC1CC1)N1[C@@H](CO)[C@@H](c2ccccc2)C12CN(Cc1ccccc1)C2	-25
Cc1ccc(S(=O)(=O)N2C[C@H](O)COC[C@H]3O[C@@H](CC(=O)NCc4ccc5c(c4)OCO5)CC[C@@H]32)cc1	-18
Cc1oncc1C(=O)NCc1cc(=O)n2c(n1)CN(CC(C)C)CCC2	9
Cc1ccc(NC(=O)Cn2ncc3c(N4CCCC4)ncnc32)cc1Cl	-55
CN1CCN(C(=O)C[C@@H]2CC[C@H]3[C@@H](COc4ccc(NC(=O)C5CCOCC5)cc4C(=O)N3C)O2)CC1	2
CN(C)C(=O)c1cccc(-c2ccc([C@H]3[C@H]4CN(CC5CCOCC5)CCCCN4[C@H]3CO)cc2)c1	3
CC(=O)O[C@H]1CC[C@@]2(C)C(=CC[C@@H]3[C@@H]2CC[C@]2(C)C(c4cccnc4)=CC[C@@H]32)C1	-56&-68
CCc1c(C)sc2c1CCN(Cc1nc(-c3ccc(OC)c(OC)c3)oc1C)C2c1ccccc1 (stereo not given)	-46
Cc1ccc2c(c1)CCCN2C(=O)CN(Cc1ccccn1)CC1CCCO1 (stereo not given)	7
COCC(=O)Nc1ccc2c(c1)C(=O)N(C)[C@H]1CC[C@@H](CC(=O)N3CCc4ccccc4C3)O[C@H]1CO2	-4
COC1CC2(CCN(Cc3cccn3C)CC2)C1	-50

Other results follow:
SMILES	Tg IFNy HTS
CC(C)CCn1c(=O)n(CC2CCCN(C)C2)c2cc(C(=O)O)cnc21 (stereo not given)	40
CNC(=O)CCc1cc(C)nc(C2CCCN2)n1 (stereo not given)	-21
C[C@H](CO)N1C[C@H](C)[C@H](CN(C)C(=O)c2ccc(N3CCN(C)CC3)cc2)OCc2cnnn2CCCC1=O	82
COc1cccc([C@@H]2CCN(Cc3ccc(C(=O)O)cc3)C[C@H]2O)c1	-7
CN(C)Cc1cn(CC[C@@H]2CC[C@H](NC(=O)Cc3cccnc3)[C@H](CO)O2)nn1	11
CCCc1cc(C(=O)Nc2ccc(N(CC)CC)cc2)nn1-c1ccccc1	-19
O=C(c1ccoc1)N1CCN(CC2CC2)c2ncccc2C1	i
O=C(c1ccc(F)cc1)C1CCN(CCCCc2ccccc2)CC1	-3
CN(C)CC(=O)N1CCc2onc(CNc3ncccn3)c2C1	0
CCOC(=O)c1nc(N2CCN(c3cccc(C)c3C)CC2)c2ccccc2n1	-22
NCCCCN=C(N)N	22
CC(=O)N1C[C@@H]2OCCN(Cc3csc(C)n3)[C@H]2C1	78
CCOC(=O)c1oc2ccc(CNC3CCCCC3)c(Cl)c2c1C	-9
Cc1n[nH]c(C)c1CN1CCn2nc(C(=O)NCc3ccccn3)cc2C1	-2
O=C1CN(CC(=O)N2CCCCC2CCN2CCOCC2)CCN1 (stereo not given)	4
O=C(Cc1ccc(O)c(Cl)c1)N1CC[C@H](CO)[C@H](O)C1	7
